rRNA inh HTS – inhibits bacterial ribosomal RNA function over humanized ribosomes; E. coli WT GFP vs humanized-ribosome RFP mutants, fluorescence, 24 h; hits give low values; DMSO median 0, no signal -100; GFP signal change (wild-type ribosome), % (test concentration not listed); hit rate 1.6% among 350,000;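 active means significant combined selectivity score with lowered wild-type GFP, culture density cut under 30%, mutant RFP and density less affected; inactive means any of these conditions unmet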; further: one replicate is shown; some compounds called inactive have numbers as strong as hits
FGF22 binding – FGF22 (human) thermal shift binding | calls only at 9.99 µM | recombinant FGF22 thermal shift, SYPRO orange fluorescence; percent of sucrose octasulfate shift, DMSO zero | Q9HCT0 | AID 651658 | hit rate 1.5% among 340,000;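 active means melting point raised past a set limit in the mean and every replicate; three in four hits are not shown here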
Target sequence (Q9HCT0 whole entry, looked up): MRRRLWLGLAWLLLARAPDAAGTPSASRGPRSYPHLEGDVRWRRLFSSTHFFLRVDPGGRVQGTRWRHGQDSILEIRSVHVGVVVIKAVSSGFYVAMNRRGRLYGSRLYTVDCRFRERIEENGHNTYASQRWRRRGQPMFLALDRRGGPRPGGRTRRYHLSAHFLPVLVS
A1 inh – inhibitors of the anti-apoptotic protein A1, read as caspase activation; caspase activation, % (no concentration beside the values); MEF A1-2A-BIM cells, Caspase-Glo 3/7 luminescence, 3 h; percent of clofoctol response, vehicle zero; hit rate 0.066% among 330,000; AID 2462;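 active means over half of replicate activation scores above 10%, or exactly half above 10 with the replicate mean above 10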;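 further: wells of about 30 µL received 50 nL stock; many hits fall short of the cut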
T cruzi inh – blocks replication of Trypanosoma cruzi; T. cruzi beta-gal in NIH3T3, luminescence, 90 h; inhibition, % (test concentration not listed); hit rate 1.4% among 300,000; AID 1885;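 active means mean inhibition across valid replicates above about 55%, limit read from the data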;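 further: signal also drops with host cell toxicity which is not excluded here; 0% = plate median of DMSO wells and 100% = zero luminescence signal; higher percent means less beta-gal luminescence so fewer parasites; stock transfer was 50 nL into about 50 µL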
Beta apoptosis – blocks beta cell apoptosis | hit rate 0.8% among 300,000 | AID 435005 | INS-1E cytokine-induced death, ATP luminescence, 48 h; percent of positive-control rescue, neutral wells zero | protection from apoptosis, % (concentration not given with the values);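 active means all replicates at 75% or more, or half of them and the mean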;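 further: 0% = cytokine-treated negative control wells and 100% = positive control rescue; higher means more ATP so stronger rescue from cytokine killing; wells of about 40 µL received 100 nL stock; the first replicate is given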
UCH37 inh – human UCH37 deubiquitinating enzyme inhibition; inhibition, % (test concentration not listed); Q9Y5K5; purified proteasome/UCH37, Ub-AMC cleavage fluorescence; hit rate 0.33% among 330,000;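 active means mean of two replicates above 20%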;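 further: 0% = compound-free wells with enzyme and 100% = wells lacking proteasome; stock transfer was 100 nL into about 20 µL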
Target sequence (Q9Y5K5 whole entry, looked up): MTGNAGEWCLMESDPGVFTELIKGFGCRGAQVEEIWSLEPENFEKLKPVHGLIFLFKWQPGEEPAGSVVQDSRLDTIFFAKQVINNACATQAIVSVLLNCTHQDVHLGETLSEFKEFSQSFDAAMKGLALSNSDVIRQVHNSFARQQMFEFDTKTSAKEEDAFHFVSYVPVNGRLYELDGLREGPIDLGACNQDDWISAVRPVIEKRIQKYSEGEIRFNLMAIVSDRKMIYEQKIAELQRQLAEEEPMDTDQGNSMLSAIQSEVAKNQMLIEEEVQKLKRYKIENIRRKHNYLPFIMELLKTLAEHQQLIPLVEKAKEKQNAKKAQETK
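Test system – human UCH37 enzyme supplied as purified proteasome complex · Incubation – 30 min preincubation with enzyme, 25 min cleavage at room temperature · Detection – AMC fluorescence from Ub-AMC cleavage, excitation 355 nm, emission 460 nm · Benchmarks – no-proteasome wells (full inhibition) and compound-free wells (no inhibition)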
MLL AF4-AF9 inh – inhibitors of human MLL-AF4/AF9 interaction | AID 651704 | hit rate 0.47% among 350,000 | AlphaScreen, biotin-AF4 peptide binding to FLAG-AF9 | inhibition, % at 10 µM;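 active means every replicate reaching a set inhibition limit, whatever the replicate mean, cut at about 25% in these data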;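 further: 0% = plate neutral control median and 100% = total signal loss; the record names both 10 and 1 µM as test concentration; the first replicate is given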
Target sequence (P42568 whole entry, looked up): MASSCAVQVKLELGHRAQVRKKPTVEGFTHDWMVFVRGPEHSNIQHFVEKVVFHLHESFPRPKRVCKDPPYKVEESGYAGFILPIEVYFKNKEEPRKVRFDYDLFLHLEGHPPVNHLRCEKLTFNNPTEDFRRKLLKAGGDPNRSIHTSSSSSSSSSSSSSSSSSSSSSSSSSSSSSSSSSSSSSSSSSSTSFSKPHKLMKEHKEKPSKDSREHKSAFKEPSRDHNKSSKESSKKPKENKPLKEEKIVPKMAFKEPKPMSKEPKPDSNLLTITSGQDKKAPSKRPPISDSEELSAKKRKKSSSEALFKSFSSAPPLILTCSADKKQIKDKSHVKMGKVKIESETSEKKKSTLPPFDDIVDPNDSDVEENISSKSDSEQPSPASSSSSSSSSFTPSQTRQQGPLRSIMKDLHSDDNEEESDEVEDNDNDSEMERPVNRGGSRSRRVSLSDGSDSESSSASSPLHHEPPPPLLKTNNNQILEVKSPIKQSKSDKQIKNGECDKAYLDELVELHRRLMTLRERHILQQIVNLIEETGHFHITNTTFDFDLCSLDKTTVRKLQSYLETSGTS
E coli growth – blocks Escherichia coli growth | AID 1053175 | OD600 absorbance (test concentration not listed) | OD600, 23 h; hits give low values | hit rate 0.21% among 330,000;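 active means OD600 absorbance below the run mean of sample wells minus 3.6 SD, in any replicate, cut at about 0.56 in these data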;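 further: stock transfer was 300 nL into about 60 µL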
rRNA inh HTS OD600 – second read-out of rRNA inh HTS, no call of its own (marks repeat the call); OD600 change, %; measured here: OD600 growth;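 optical density of the mix in the first replicate; 0 = DMSO median and -100 = no signal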
rRNA inh HTS RFP – further read-out of rRNA inh HTS, marked with its call; RFP signal change, %; measured here: RFP humanized mutant strains;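 first replicate; 0 = DMSO median and -100 = no signal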
* marks the source's active call; other numbers are inactive results; i = inactive; nt = no result given; & = joins results of further samples. These rows are one share of the data, so the mix of outcomes need not match the whole.

SMILES	rRNA inh HTS	rRNA inh HTS OD600	rRNA inh HTS RFP	FGF22 binding	A1 inh	T cruzi inh	Beta apoptosis	UCH37 inh	MLL AF4-AF9 inh	E coli growth
CC1=C(n2nnc([N+](=O)[O-])n2)C(c2cccnc2)C(C#N)=C(N)O1 (centres undefined)	nt	nt	nt	nt	-0.9	57*	nt	5.4	nt	0.7
CCN1C(=O)/C(=C\c2cccn2-c2ccc([N+](=O)[O-])cc2)N(CC)C1=S	nt	nt	nt	nt	0.0	-4	0	4.4	nt	0.71
COc1ccccc1Nc1ccc(C(=O)NCc2cccs2)cn1	6	5	-0.7	i	-0.5	13	1	-1.1	0.6	0.72
CCn1c2ccccc2c2cc(/C=N/n3c(-c4cc(C)[nH]n4)n[nH]c3=S)ccc21	-31*	-10*	-4.7*	i	-0.9	-1	0	nt	nt	nt
COc1ccc(NC(=O)CSc2ccc3nnc(-c4cccnc4)n3n2)cc1OC	6	7	1.1	i	0.3	8	-2	3.1	1.2	0.7
COc1cccc(C(C(=O)NCc2ccco2)N(C(=O)Cn2nnc3ccccc32)C2CC2)c1OC (centres undefined)	nt	nt	nt	nt	-0.3	10	nt	4.3	nt	0.75
COCc1ccc(C(=O)N(C)C2CCCN(Cc3ccccc3F)C2)o1 (centres undefined)	4	7	1.9	i	-0.3	2	-2	4.4	2.0	0.71
CCOc1ccc(NC(=S)N2CCC(C(N)=O)CC2)cc1	7	6	-3.7	i	0.4	17	-4	2.1	-35	0.68
COc1ccc(CNC(=O)COC(=O)c2ccccc2OCC(=O)Nc2ccc(SC(F)F)cc2)cc1	4	1	-1.6	i	-0.5	18	-1	5.5	1.3	0.62
Cc1nn(-c2ccc(Cl)cc2)c(NC(=O)C(C)C)c(-c2ccccc2)c1=O	12	13	1.9	i	0.1	nt	-5	2.6	-0.5	0.67
CN(Cc1ccc(F)cc1Cl)S(=O)(=O)c1cccs1	-18	-32	-5.8	i	0.3	5	-7	5.4	-3.6	0.7
COc1ccc2ncn(-c3ccccc3)c2c1	nt	nt	nt	nt	1.1	5	-20	1.8	nt	0.66
O=C1CCN(Cc2ccccc2)CCN1[C@H](CSc1ccccc1)Cc1ccccc1	-24	-63	3.0	i	1.2	16	3	nt	nt	nt
CCc1ccc(/C=N/Nc2ncnc3nc[nH]c23)cc1	-3	24	4.2	i	-5.7	0	-3	nt	1.4	nt
O=C1CSC(c2ccccc2F)N1CCN1CCCCC1 (centres undefined)	nt	nt	nt	nt	-0.3	-2	-4	-0.3	nt	0.69
COc1ccc(NCc2ccc([N+](=O)[O-])s2)c(OC)c1	nt	nt	nt	nt	0.2	nt	-5	13	nt	0.65
Cc1cccc(CC(=O)N2CCN(C(=O)c3ccco3)CC2)c1	9	14	3.0	nt	-0.2	-5	-22	4.9	0.2	0.68
COc1ccc(OC)c(C2NC(=S)NC(C)=C2C(=O)Nc2ccccn2)c1 (centres undefined)	2	-2	1.2	i	-0.5	3	-4	2.3	-6.8	0.71
Cc1ccc(-n2c(=O)c3sccc3n(CC(=O)N3CCCC3)c2=O)cc1	nt	nt	nt	nt	-1.6	-3	-3	0.1	nt	0.74
NS(=O)(=O)c1cccc(NC(=O)C2CC(=O)N(Cc3ccco3)C2)c1 (centres undefined)	14	10	5.1	i	0.1	-14	-4	-2.1	-3.0	0.71
Cc1ccc2oc(Nc3nc(-c4ccccc4)cc(=O)[nH]3)nc2c1	8	11	2.7	i	nt	75*	nt	-2.8	-1.4	0.72
Cc1cc(=O)c2c(o1)CC(C)(C)CC2=O	8	11	0.9	i	1.2	-16	-5	-1.4	2.9	0.69
Cc1nc(N)sc1-c1csc(Nc2ccc(Cl)cn2)n1	16	14	2.6	i	0.1	-4	0	-3.9	3.4	0.69
COc1ccc(S(=O)(=O)NNC(=O)c2cc3ccccc3o2)cc1	13	9	0.9	i	0.3	-24	-8	1.1	-1.3	0.64
Cc1ccc(NC(=O)Cn2c(=O)c(C)nc3ccccc32)cc1	4	-3	-8.0	i	-0.4	-8	-7	4.1	-1.6	0.69
Cn1c(=O)cc(SCC(=O)N2CCN(c3ccccc3)CC2)c2ccccc21	nt	nt	nt	nt	0.3	9	0	1.4	nt	0.71
O=C(NCc1ccco1)C1CCN(c2nc3ccccc3n2Cc2ccc(F)cc2)CC1	-13	-36	0.0	i	-0.4	-4	6	6.6	-1.1	0.75
COCCCNCCCCOc1ccccc1-c1ccccc1	nt	nt	nt	nt	-0.2	10	0	5.2	nt	0.68
CC(=O)C1=C(C)OC(N)=C(C#N)C1c1cc2cccc(C)c2nc1Cl (centres undefined)	nt	nt	nt	nt	-0.5	-14	-6	5.1	nt	0.69
Cc1ccc(OCC(=O)Nc2ccccc2C(N)=O)cc1	12	8	3.3	i	-0.9	0	-1	1.4	-2.0	0.68
Cc1c(C(=O)N2CCOCC2)sc(NC(=O)Cc2ccccc2)c1C#N	3	8	-2.9	i	0.4	-1	-1	0.7	-1.8	0.7
O=C(c1ccc(COc2ccccc2Br)o1)N1CCN(c2ccccn2)CC1	nt	nt	nt	nt	-0.2	6	2	1.4	nt	0.68
COc1cccc(NC(=O)CCC2CCN(C(=O)Cc3cccc(F)c3)CC2)c1	-1	-7	3.3	i	0.4	-1	1	4.0	0.5	0.7
CCCCN(CC)C(=S)Nc1ccc2nc(N3CCN(C)CC3)cc(C)c2c1	4	0	8.7	i	1.8	36	-6	-2.0	-82	0.68
Cc1ccc(S(=O)(=O)N2CC(=O)Nc3ccccc32)cc1C	-32*	-6.7*	4.4*	i	0.6	-2	-6	2.9	3.9	0.7
CCOC(=O)C1=C(C)NC(=O)NC1c1ccc(C)o1 (centres undefined)	10	8	4.1	i	0.8	0	-2	5.7	-7.6	0.7
Cc1ccc(C)c(S(=O)(=O)N2CCN(C(=O)Cc3sc(C)nc3-c3ccc(F)cc3)CC2)c1	nt	nt	nt	i	nt	nt	nt	2.9	-3.0	0.66
C[C@H](CO)N1C[C@H](C)[C@@H](CN(C)S(=O)(=O)c2ccccc2)Oc2c(NC(=O)c3ccncc3)cccc2C1=O	0&-2	3&5	-3.6&-1.5	i	0.4	nt	1	2.4	-1.0	nt
O=[N+]([O-])c1ccc(NC(=S)NCCc2ccc(Cl)cc2)cc1	nt	nt	nt	nt	-0.1	53	87*	3.0	nt	0.58
CCOCCn1c(SCc2cccc(C)c2)nc2c1c(=O)[nH]c(=O)n2C	-7	-4	-5.4	i	1.0	-3	4	0.9	5.3	0.8
COc1cc(OC)c(C(=O)OC(C)C(=O)NCc2ccc3c(c2)OCO3)cc1OC (centres undefined)	5	6	-0.4	i	-0.5	nt	-4	1.8	-1.5	0.72
CCc1ccccc1NC1c2ccccc2C(=O)N1Cc1ccco1 (centres undefined)	-2	-36	-13	i	0.0	-6	5	5.2	7.1	0.77
NS(=O)(=O)c1ccc(NC(=O)COC(=O)c2cc3ccccc3cc2O)cc1	-7	1	3.4	i	0.6	-9	-10	-2.7	-1.0	0.72
COc1ccc(-c2csc3ncnc(Cl)c23)cc1	7	0	6.0	i	0.2	-14	-5	3.4	-0.5	0.71
COc1ccc([N+](=O)[O-])cc1NC(=O)CN(C)S(=O)(=O)c1ccccc1	-2	8	-1.9	i	0.5	-6	3	2.8	0.1	0.69
COCCNC(=O)c1cccc(OC2CCN(Cc3ccc(F)cc3OC)CC2)c1	-3	-2	-3.0	i	2.5	15	-4	0.8	0.4	0.68
O=C(Nc1cccc(NC(=O)c2c(F)cccc2F)n1)c1c(F)cccc1F	-8	-17	-4.0	i	-0.8	-10	14	0.2	0.2	0.69
CCOC(=O)c1c(NC(=O)c2c(C)noc2C)sc2c1CCCCC2	nt	nt	nt	nt	-0.1	-3	3	-8.3	nt	0.69
CC1CCN(C(=O)COC(=O)C2CCN(S(=O)(=O)c3ccc(Cl)c(C(F)(F)F)c3)CC2)CC1	-2	0	-3.9	i	-0.3	3	-2	2.0	-18	0.7
O=C(NCc1ccc2c(c1)OCO2)C1CC(=O)N(C2CCCCCCC2)C1 (centres undefined)	nt	nt	nt	nt	0.2	-18	2	0.7	nt	0.67
Next part.
SMILES	rRNA inh HTS	rRNA inh HTS OD600	rRNA inh HTS RFP	FGF22 binding	A1 inh	T cruzi inh	Beta apoptosis	UCH37 inh	MLL AF4-AF9 inh	E coli growth
Cc1cc(C(=O)Cn2nnc3ccccc3c2=O)c(C)n1-c1ccccc1F	nt	nt	nt	nt	-2.1	2	3	1.2	nt	0.71
COc1ccc(C)cc1NC(=O)COC(=O)c1c(C)noc1C	nt	nt	nt	nt	0.0	-6	-4	-0.9	nt	0.74
COc1cccc(NC(=O)CCNC(=O)N2CC(=O)Nc3ccccc32)c1	3	10	-1.3	i	-0.9	-9	nt	-0.5	-2.4	0.66
O=C(c1[nH]nc2c1CCc1ccccc1-2)N1CCN(Cc2ccc3c(c2)OCO3)CC1	nt	nt	nt	nt	2.4	12	0	4.3	nt	0.66
O=C(c1ccc2c3n(nc2c1)-c1ccc(Cl)cc1CO3)N1CCCCC1	-30	-37	-5.9	i	-8.8	-4	5	3.4	1.6	0.68
CC(C)c1ccc(NC(=O)NC2(C(=O)NCc3cccnc3)CCCCC2)cc1	1	-3	-0.8	i	0.1	0	-6	0.1	0.3	0.64
O=C(Cn1nnc(-c2ccccc2NC(=O)c2ccco2)n1)Nc1ccccc1	nt	nt	nt	nt	-0.1	3	-8	-1.2	nt	0.8
Cc1nc2ccn(Cc3ccccc3)c(=O)c2cc1C(=O)N1CCN(c2ccccc2)CC1	-10	-4	-6.7	i	-0.3	15	6	-0.5	3.6	0.66
CCC(=O)Nc1ccc(C(=O)Nc2ccc(OC)cc2[N+](=O)[O-])cc1	nt	nt	nt	i	0.7	14	-4	8.4	1.2	0.76
Cc1ccc(NC(=O)c2ccccc2-c2ccc(C(F)(F)F)cc2)cc1S(=O)(=O)N1CCOCC1	nt	nt	nt	nt	-0.3	31	5	5.6	nt	0.71
CCOc1ccc(C(=O)O)cn1	12	4	-6.6	i	-0.5	-7	-4	0.6	-0.9	0.71
COc1ccc(NC(=O)c2ccc(C)o2)c([N+](=O)[O-])c1	nt	nt	nt	nt	-5.0	-6	-1	3.6	nt	0.69
COC(=O)c1ccc(C2=NOC(C)(c3nnc(Cc4ccccc4)o3)C2)cc1 (centres undefined)	-7	-9	-0.3	i	-1.0	0	-2	1.1	-6.6	0.68
COc1ccc(C(=O)N2CCC(C(=O)Nc3ccc(C)cc3)CC2)cc1	2	-3	-2.1	i	-0.5	1	-1	2.9	-1.5	0.65
Cc1cc(NC(=O)c2nn(C)c(C)c2[N+](=O)[O-])no1	nt	nt	nt	nt	0.3	-12	-4	5.7	nt	0.68
CC(C)Oc1ccc(CNCC2(O)CCOC(C)(C)C2)cc1 (centres undefined)	nt	nt	nt	nt	0.0	3	-1	-0.7	nt	0.69
CC(=O)Nc1ccc(CNc2ncnc3ccc(-c4c(C)noc4C)cc23)cc1	-7	5	-13	i	-0.9	nt	-38	1.5	-0.5	0.69
